HNF4A DNA FP: change in binding of human HNF4A to DNA, primary screen, biochemical, fluorescence polarization, FITC-DNA; 1 h; AID 1224865, 2016; 360,000 tested, 0.3% active; Hepatocyte nuclear factor 4-alpha (Homo sapiens), P41235; activity change, % at 10 µM; in the data active = activity change above about 30%, passing the limit was not always enough;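 also: controls were the assay level and a saturating level of protein; the project sought stronger binding though the title names inhibitors; some compounds called inactive have numbers as strong as hits; positive values seem to mean higher polarization but the record does not say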
Target sequence (P41235 whole entry, looked up): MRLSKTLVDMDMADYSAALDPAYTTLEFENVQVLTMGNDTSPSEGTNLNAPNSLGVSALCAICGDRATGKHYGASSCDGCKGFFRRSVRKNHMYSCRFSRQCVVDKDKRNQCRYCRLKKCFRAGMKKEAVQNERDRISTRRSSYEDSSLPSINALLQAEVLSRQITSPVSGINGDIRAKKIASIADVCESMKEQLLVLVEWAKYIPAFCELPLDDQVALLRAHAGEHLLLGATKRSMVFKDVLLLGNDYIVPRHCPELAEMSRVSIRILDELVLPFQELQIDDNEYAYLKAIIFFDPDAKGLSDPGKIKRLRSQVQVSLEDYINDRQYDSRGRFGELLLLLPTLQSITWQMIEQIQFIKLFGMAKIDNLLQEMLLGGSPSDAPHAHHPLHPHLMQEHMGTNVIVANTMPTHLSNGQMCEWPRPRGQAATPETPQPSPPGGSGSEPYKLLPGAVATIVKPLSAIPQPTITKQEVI
The depositor's hits bear a star. Only part of the results is shown; the hit share may differ from the screen's.

SMILES | HNF4A DNA FP
COC(=O)c1ccc2nc(-c3ccc(Cl)cc3)c(CC3CCCCC3)n2c1 | 15
CN(Cc1ccccc1)C(=O)CN1CCN(S(=O)(=O)c2ccccc2F)CC1 | -1.3
CC[C@@H]1Cc2[nH]c(=O)[nH]c(=O)c2[C@H](c2ccc(Cl)cc2)O1 | 1.3
Nc1sc(-c2ccccc2)cc1C(=O)NCCN1CCOCC1 | -0.8
Cn1c(=O)c2cc(NC(=S)NCc3ccccc3F)ccc2n1Cc1cccc(C(F)(F)F)c1 | 2.4
COc1ccccc1S(=O)(=O)N(C)C[C@H]1OCc2cnnn2CCCC(=O)N([C@H](C)CO)C[C@@H]1C | 0.5
COC(=O)c1ccc(C(=O)N2CCCCCC2(C)C(=O)NC(C)C)cc1 (stereo not given) | -2.1
O=C(O)C(=Cc1ccccc1Cl)c1ccccc1 | 3.4
COc1cccc(C(=O)N2CCC[C@H]2C(=O)N2CCC[C@H]2C(=O)NCc2ccccn2)c1 | -3.7
Cc1ccccc1S(=O)(=O)N1C[C@H]2[C@H]3C(=O)N(c4ccccc4)C(=O)[C@H]3CC(=O)[C@H]2[C@@H]1c1ccc(Cl)cc1 | -0.3
CCOC(=O)[C@]12CCCC=C1N(CCc1ccc(OC)c(OC)c1)C(=O)[C@H](CC(=O)NCCCN1CCCC1=O)C2 | -1.0
CCNC(=O)Nc1cc(S(=O)(=O)N2CCOCC2)ccc1N1CCCCC1 | 3.2
COc1ccc(-c2nc3cc(C)c(Br)c(C)n3c2CC(C)(C)C)cc1OC | 3.2
CCCS(=O)(=O)NC(=O)C1(C)CCCN(C(=O)COCc2ccccc2)C1 (stereo not given) | 0.7
COc1ccc(NC(=O)C2Cc3c(-c4ccncc4)ccnc3O2)cc1OC (stereo not given) | -5.6
Nc1[nH]c(C(=O)c2ccccc2)c(-c2ccc(Cl)cc2Cl)c1C(=O)c1ccc(Cl)c(Cl)c1 | -0.2
COCCNC(=O)C1CCCN(C(=O)C2(c3ccc(Cl)cc3)CCCC2)CC1 (stereo not given) | 2.8
COc1cc(NC(=O)c2cccc3c(-c4cnn(C)c4)coc23)cc(OC)c1OC | 6.8
CCN(CCO)c1ccc(Nc2cc(-c3ccc(-c4ccccc4)cc3)ncn2)cc1 | 4.8
CCC(C)[C@H]1CNC(=O)C(=O)N1CC(C)(C)C (stereo not given in full) | 2.0
CC(=O)Nc1ccc(S(=O)(=O)NCC(=O)OCC(=O)NCCc2ccccc2)cc1 | -1.3
CC1(C(=O)NS(=O)(=O)c2ccc(Cl)cc2)CCN1C(=O)C1(c2ccc(Cl)cc2)CC1 (stereo not given) | -0.2
CCCCCC(=O)N1C[C@@H](O)[C@H](n2cc(C3CC3)nn2)C[C@@H]1c1ccc(C)cc1 | -2.8
COc1ccc(-c2coc3c(C(=O)NC4CCCCC4)cccc23)c(C)c1 | -1.8
CCCNC(=O)C1(C)CCCN(Cc2c3ccccc3nn2C)C1 (stereo not given) | -2.1
CN(C)CCCNc1nc2cc(-c3cccc(Cl)c3)sc2c(=O)n1C | 1.9
CC(=O)Nc1cccc(-c2ccnc3c2CC(C(=O)Nc2ccccc2)O3)c1 (stereo not given) | -2.4
CCNC(=O)C1CCCN(C(=O)c2ccc3snnc3c2)CC1 (stereo not given) | -4.1
NC(=O)c1cccc(-c2ccnc3c2CC(C(=O)NCCc2ccccc2)O3)c1 (stereo not given) | 4.2
CC1(C(=O)NCc2ccccc2)CSCC(=O)N1Cc1cccs1 (stereo not given) | -0.1
CC1CCCN(S(=O)(=O)c2cccc(C(=O)NCCCN3CCCC3=O)c2)C1 (stereo not given) | -5.0
CC1(C(=O)Nc2cnc3ccccc3c2)CCN1Cc1cc2ccccc2o1 (stereo not given) | -3.9
Cc1cc(C(O)c2ncc(-c3ccccc3Cl)[nH]2)ccc1F (stereo not given) | 2.1
O=C(NCc1ccccc1)[C@@H]1CCCN1C(=O)[C@@H]1CCCN1C(=O)c1cccs1 | 0.6
COc1ccc(C(C)(O)c2nc(-c3ccc4ccccc4c3)cs2)cc1 (stereo not given) | -4.1
Cc1ccc(-c2ccc3c(c2)O[C@H](CN(C)C(=O)Nc2ccc(C(F)(F)F)cc2)[C@H](C)CN([C@H](C)CO)S3(=O)=O)cc1 | -0.2
CCCS(=O)(=O)NC(=O)C1(C)CCCN(C(=O)c2ccc(F)c(Cl)c2)C1 (stereo not given) | 1.8
COc1ccc(OC)c(CN2C(=O)CSCC2(C)C(=O)Nc2c(C)cccc2C)c1 (stereo not given) | 4.1
COc1ccc(CNC(=O)Nc2nc(C(N)Cc3ccc(F)cc3)cs2)cc1 (stereo not given) | 1.2
CN1CCN(C2CN(CCc3ccccc3)S(=O)(=O)C2)CC1 (stereo not given) | -1.7
CC(C)c1cccc(-c2csc(C(C)(O)c3ccc(F)c(F)c3)n2)c1 (stereo not given) | -0.3
CCOc1ccc(CCN2C(=S)N([C@@H](Cc3ccc(O)cc3)CN3CCC[C@@H]3CN3C(=S)NC[C@@H]3CC(C)C)C[C@@H]2Cc2ccccc2)cc1 | -1.6
O=C(Nc1cccc(Cl)c1)c1csc([C@H]2C[C@H](O)[C@@H](CO)O2)n1 | -1.7
CCOC(=O)C1=CCN(S(=O)(=O)c2ccc(C)cc2)C1c1cccc(Br)c1 (stereo not given) | -2.7
CC1(C(=O)NCc2ccccc2Br)CCN1Cc1ccc(-c2ccccn2)cc1 (stereo not given) | -5.1
COCCCN1C(=O)C(CC(=O)NCc2ccco2)CC(C(=O)N2CCOCC2)=C1C (stereo not given) | 4.3
O=C1NC[C@@H](CCCCN2CCN(CCc3ccc(O)cc3)C(=O)C2=O)N(CCC2CCCCC2)C1=O | 3.7
CCCc1nc2c3ccccc3ccn2c1CC(C)(C)C | -8.3
COc1cccc(-c2cnc3c(NC=O)cc(-c4ccc(O)c(OC)c4)cn23)c1 | 8.5
COc1cc(OC)cc(C2=Cc3ccccc3C(CC(C)=O)N2c2ccc(-c3cccs3)cc2)c1 (stereo not given) | 5.8

Next part
SMILES | HNF4A DNA FP
CC1(C(=O)Nc2cccc3ccccc23)CCN1C(=O)C1(c2ccccc2)CCCC1 (stereo not given) | 5.7
Cn1c(=O)c2cc(NC(=O)Cc3cccc4ccccc34)ccc2n1-c1ccccc1 | 5.5
Cc1noc(C)c1S(=O)(=O)NC(=O)C1(C)CCN1C(=O)C1(c2ccc(Cl)cc2)CCC1 (stereo not given) | -0.1
C[C@H]1CN([C@@H](C)CO)S(=O)(=O)c2ccc(Br)cc2O[C@H]1CN(C)C(=O)c1cnccn1 | 3.9
COC(=O)c1ccc2nc(C(C)(C)C)c(Cc3ccc(OC)cc3C)n2c1 | 11
CC1(C(=O)O)CCCN1C(=O)c1ccc(Cl)cc1Cl (stereo not given) | 1.9
Cc1cc2c(cc1C)-n1nnnc1C(N1CCN(c3ccccc3F)CC1)C(=O)N2 (stereo not given) | -0.3
CC1(C(=O)NCc2ccccc2)CN(S(C)(=O)=O)CC(=O)N1Cc1cccs1 (stereo not given) | -5.4
Cc1cc(NC(=O)CS(=O)c2cn(Cc3cccc(Cl)c3)c3ccccc23)no1 (stereo not given) | 3.3
OCC[C@@H]1C[C@H](O)[C@@H](O)[C@]2(OCc3ccc4ccccc4c32)O1 | -2.8

2 entries from above in another layout.
COC(=O)c1ccc(C(=O)N2CCCCCC2(C)C(=O)NC(C)C)cc1 (stereo not given)
  HNF4A DNA FP: -2.1

CN(C)CCCNc1nc2cc(-c3cccc(Cl)c3)sc2c(=O)n1C
  HNF4A DNA FP: 1.9

Additional structures follow:
SMILES | HNF4A DNA FP
Cc1cccc(C)c1NC(=O)C1(C)CN(S(C)(=O)=O)CC(=O)N1Cc1ccc2c(c1)OCO2 (stereo not given) | 1.3
COC(=O)[C@]12CCCCC=C1N(Cc1cccc3ccccc13)C(=O)[C@H](CC(=O)NCc1cccc3ccccc13)C2 | 3.1
C=CCNc1nc(NCc2cccc(OC)c2)c2sc(-c3ccccc3)cc2n1 | 1.4
Cn1c(-c2ccccc2)c(Sc2ccccc2)c2cc(-c3ccc4[nH]ccc4c3)ccc21 | -1.2
COc1ccc(CN2C(=O)C(CC(=O)NCc3ccco3)CC(C(=O)N(C(C)C)C(C)C)=C2C)cc1 (stereo not given) | -5.3
COCCNC(=O)C1(C)CCCN(CCOc2ccc(Cl)cc2)C1 (stereo not given) | -2.5
COc1ccc(CNC(=O)c2cccc3c(-c4cccc(C(N)=O)c4)coc23)cc1OC | 18
COc1ccc(-c2nc3ccc(Cl)cn3c2Cc2cccc(F)c2)cc1OC | 10
CCCNC(=O)C1(C)CCCN(Cc2ccc(C#N)cc2)C1 (stereo not given) | -0.6
CCOC(=O)C1(C)CCCN(C(=O)c2ccc(OC)cc2)C1 (stereo not given) | -2.7

Among those listed so far, four have bromine:
SMILES | HNF4A DNA FP
COc1ccc(-c2nc3cc(C)c(Br)c(C)n3c2CC(C)(C)C)cc1OC | 3.2
CCOC(=O)C1=CCN(S(=O)(=O)c2ccc(C)cc2)C1c1cccc(Br)c1 (stereo not given) | -2.7
CC1(C(=O)NCc2ccccc2Br)CCN1Cc1ccc(-c2ccccn2)cc1 (stereo not given) | -5.1
C[C@H]1CN([C@@H](C)CO)S(=O)(=O)c2ccc(Br)cc2O[C@H]1CN(C)C(=O)c1cnccn1 | 3.9

(cont.)
SMILES | HNF4A DNA FP
CCC(C(=O)NCc1ccccc1)n1c(-c2cccs2)nc2ccccc21 (stereo not given) | 3.7
COc1cc(-c2cnc3c(NC=O)cc(-c4ccccc4Cl)cn23)cc(OC)c1OC | 2.7
CC1(C(=O)NCc2ccc(C(F)(F)F)cc2)CCN1Cc1c(F)cccc1F (stereo not given) | -3.5
C[C@@H]1CN([C@H](C)CO)C(=O)CCCn2nncc2CO[C@H]1CN(C)S(=O)(=O)c1ccccc1F | -2.8
OCc1ccccc1-c1nc(NCC2CC2)nc2ccsc12 | -0.9
CC1(C(=O)Nc2cccc3ccccc23)CCN1C(=O)Cc1ccccc1Cl (stereo not given) | 0.6
CC(CCl)n1c(=O)c2ccccc2n1S(C)(=O)=O (stereo not given) | 0.8
COC(=O)CCCn1cc(CN2CC(N3CCCC3)CS2(=O)=O)nn1 (stereo not given) | 2.1
Cc1cccc(C)c1-n1nnnc1C1(C)CCC(=O)N1Cc1cccc(C(F)(F)F)c1 (stereo not given) | 9.1
CCc1cc2c(SCC(=O)NC3CCCC3)ncnc2s1 | 2.3
C[C@H](O)[C@@H]1C(=O)N2CCc3c([nH]c4ccccc34)[C@@H]2C[C@@H]1N(C)C(=O)c1ccco1 | 1.3
CCOC(=O)[C@]12CCC=C1N(Cc1ccco1)C(=O)[C@H](CC(=O)NCCCN1CCCC1=O)C2 | -2.3
Cc1cccc(OCCNC(=O)c2cc(C3CC3)nc3c2cnn3C(C)C)c1 | 3.6
CC1=C(C(=O)N(C(C)C)C(C)C)CC(CC(=O)NCc2cccs2)C(=O)N1CCC1=CCCCC1 (stereo not given) | -0.4
CC(=O)N1C(=O)C2(NCC(C)N2)c2ccccc21 (stereo not given) | 2.8
C[C@H](CO)N1C[C@H](C)[C@@H](CN(C)S(=O)(=O)c2ccccc2F)OCc2cnnn2CCCC1=O | 0.5
CCc1nc2ccc(C(=O)NCCN3CCNC3=O)cn2c1N(C)CCC(C)C | -2.0
COC(=O)[C@]12CCCCC=C1N(CCC1=CCCCC1)C(=O)[C@H](CC(=O)NCC13CC4CC(CC(C4)C1)C3)C2 | 7.0
CC(C)Nc1ncnc2c1ncn2[C@H]1CN(CCN2CCOCC2)C[C@@H](CO)O1 | 0.9
O=S1(=O)CC(N2CCSCC2)CN1Cc1cn(Cc2ccccc2)nn1 (stereo not given) | 2.3

Six structures already listed, ordered by SMILES length, ascending:
SMILES | HNF4A DNA FP
O=S1(=O)CC(N2CCSCC2)CN1Cc1cn(Cc2ccccc2)nn1 (stereo not given) | 2.3
CCc1nc2ccc(C(=O)NCCN3CCNC3=O)cn2c1N(C)CCC(C)C | -2.0
CC(C)Nc1ncnc2c1ncn2[C@H]1CN(CCN2CCOCC2)C[C@@H](CO)O1 | 0.9
CCOC(=O)[C@]12CCC=C1N(Cc1ccco1)C(=O)[C@H](CC(=O)NCCCN1CCCC1=O)C2 | -2.3
C[C@H](CO)N1C[C@H](C)[C@@H](CN(C)S(=O)(=O)c2ccccc2F)OCc2cnnn2CCCC1=O | 0.5
C[C@H](O)[C@@H]1C(=O)N2CCc3c([nH]c4ccccc34)[C@@H]2C[C@@H]1N(C)C(=O)c1ccco1 | 1.3

Additional structures:
SMILES | HNF4A DNA FP
CC(C)n1c(=O)c2ccccc2n1Cc1cn(-c2ccccc2)nn1 | 1.9
COC(=O)c1ccc2nc(C3CCCCC3)c(CC(C)(C)C)n2c1 | 2.6
CC(C)CN1CCC1(C)C(=O)Nc1ccc(OC(F)F)cc1 (stereo not given) | 2.9
COc1ccc(-c2cc3nc(NCC4CCCCC4)n(C)c(=O)c3s2)cc1OC | -1.2
O=C(Nc1cccc(F)c1)c1ccc(-n2cncn2)c2ccoc12 | 4.4
Cc1cc(C)c(C(O)c2ncc(-c3ccccc3Cl)[nH]2)c(C)c1 (stereo not given) | -0.9
CC1(C(=O)NS(=O)(=O)c2cccc(F)c2)CCN1C(=O)Cc1ccccc1 (stereo not given) | 3.3
CC(C)CNC(=O)C1(C)CCCCCN1C(=O)c1csnn1 (stereo not given) | 0.5
Nc1[nH]c(C(=O)c2ccccc2)c(-c2ccccc2C(F)(F)F)c1C(=O)NCc1cccc2ccccc12 | 7.1
COc1ccc(/C=C/C(=O)OCC(=O)Nc2nnc(-c3ccccc3)o2)c(OC)c1 | -1.6
CCOC(=O)C1(C)CCCN(C(=O)c2ccc(OC)cc2OC)C1 (stereo not given) | 1.3
OC(c1cc(F)cc(Cl)c1)c1ncc(-c2ccc(Cl)cc2)[nH]1 (stereo not given) | 1.9
O=C1NC[C@@H](CCCCN2C[C@H](Cc3ccccc3)N(CCC3CCCCC3)C(=O)C2=O)N(CCc2ccccc2)C1=O | 7.5
CC(O)(c1cccc(F)c1)c1nc(-c2ccc(S(C)(=O)=O)cc2)cs1 (stereo not given) | 1.1
CC(C)[C@H](NC(=O)OC(C)(C)C)c1cc(C(=O)NC2CC2)c(N)s1 | 10
COCCN1C(=O)COc2ccccc2C1C(=O)NCc1ccccc1 (stereo not given) | -2.8
